Screening results from PubChem.
PINK1 expr mod: A Quantitative High throughput Screen to Identify Chemical Modulators of PINK1 Expression; PINK1 immunofluorescence, high-content cytometry, 24 h; Potency, µM (doses to about 76.6 µM), for inactives: top-dose activation (PINK1 increase), hits mostly activators; actives 0.2% (n = 410,000); AID 624263, 2012; active = well fitted activation curve with a large enough effect; inconclusive = small, poorly fitted or top-dose-only effect; inactive = flat fitted curve, though single readings scatter; cell line not stated here;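 also: potency is read from the fitted curve at half-maximal effect; % of control where 0% means no effect; nearly all actives have a fitted effect of over 65% in size; a mitochondrial uncoupler was the plate control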
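Fluorescence from anti-PINK1 antibody, together with nuclear and cell stains, was scanned on a laser-scanning cytometer. Before staining, stable-line cells were incubated 24 hours with compounds at 5 concentrations; primary antibody 12 h at 10 degrees C.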
gsp agonist: qHTS for Agonist of gsp, the Etiologic Mutation Responsible for Fibrous Dysplasia/McCune-Albright Syndrome: qHTS | AID 624287, 2012 | Potency, µM (top dose mostly 76.9 µM), inactives show top-dose activation (cAMP increase), usual class: activators | actives 0.13% (n = 340,000) | gsp mutant cells, cAMP HTRF, 30 min; control for the full effect not named in the record; active = well fitted activation curve with a large enough effect; inconclusive = small, poorly fitted or top-dose-only effect, or another doubt; inactive = no such curve, though single readings can be large or run the other way; cell line not stated here;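 also: phosphodiesterase inhibitor Ro 20-1724 added with compounds to block cAMP breakdown; potency is read from the fitted curve at half-maximal effect; nearly all actives have a fitted effect of over 60% in size; about a fifth of the inactives were tested at one dose only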
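Cells in DMEM/10% FBS with G418 were pretreated with compounds in DMSO plus […] (300 uM stock) for 30 min at 37C. cAMP was measured by HTRF (cAMP-d2 plus anti-cAMP antibody-K) after 30 min at room temperature.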
ClpP mod: qHTS Assay for Activators of ClpP; ATP-dependent Clp protease proteolytic subunit (Bacillus subtilis (strain 168)), P80244; Potency, µM (doses to about 57.5 µM), for inactives: at the highest dose activity change, negative = active; purified B. subtilis ClpP, FRET peptide cleavage, 20 min; actives 1.9% (n = 340,000); active = well fitted falling curve with a large enough effect; inconclusive = small, poorly fitted or top-dose-only effect; inactive = no such curve, though single readings can be large or run the other way; also: potency is read from the fitted curve at half-maximal effect; the source files actives as falling curves though it sought activators and does not explain the sign; nearly all actives have a fitted effect of over 65% in size; many hits overshoot -100%
Target sequence (P80244 whole entry, looked up): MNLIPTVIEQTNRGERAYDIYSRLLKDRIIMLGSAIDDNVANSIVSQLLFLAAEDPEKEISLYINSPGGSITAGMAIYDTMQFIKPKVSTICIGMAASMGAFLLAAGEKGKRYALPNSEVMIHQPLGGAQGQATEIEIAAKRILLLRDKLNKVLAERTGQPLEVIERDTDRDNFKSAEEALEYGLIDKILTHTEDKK
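Buffer: 100 mM Tris/HCl pH8, 100 mM KCl, 0.05% low protease BSA, 2.5% glycerol, 0.01% Tween-20. ClpP 10 microg/mL final; 20 min RT; delta FRET normalized to ADEP and DMSO controls.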
D2 agonist: Beta-Arrestin HTS for Positive Allosteric Modulators of the Human D2 Dopamine Receptor: Agonists. actives 0.084% (n = 360,000). DiscoveRx PathHunter D2 beta-arrestin, luminescence, 90 min; 100% = 57 uM dopamine signal. D(2) dopamine receptor (Homo sapiens), P14416. activation, % (concentration not given with the values). AID 624465, 2012; in the data active = activation above about 40%; inconclusive = about 15% to 40%; inactive = below about 15%; also: compound concentration not given in the record; the text of the record calls up to 30% inactive
Target sequence (P14416 whole entry, looked up): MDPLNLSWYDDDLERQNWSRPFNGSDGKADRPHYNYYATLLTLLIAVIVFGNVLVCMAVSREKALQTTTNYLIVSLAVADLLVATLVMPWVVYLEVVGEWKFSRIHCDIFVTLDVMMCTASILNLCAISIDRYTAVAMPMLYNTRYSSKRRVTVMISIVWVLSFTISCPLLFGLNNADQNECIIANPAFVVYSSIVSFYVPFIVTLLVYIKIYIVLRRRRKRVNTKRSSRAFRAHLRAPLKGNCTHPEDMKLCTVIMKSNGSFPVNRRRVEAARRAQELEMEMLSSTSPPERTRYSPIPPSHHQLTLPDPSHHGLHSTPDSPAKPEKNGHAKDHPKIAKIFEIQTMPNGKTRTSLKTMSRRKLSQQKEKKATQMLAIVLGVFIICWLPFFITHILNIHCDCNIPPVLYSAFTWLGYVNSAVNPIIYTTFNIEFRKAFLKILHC
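Agonist mode: compounds alone added to overnight-plated D2 PathHunter cells for 90 min at 37 C, with 57 uM final dopamine (EC100) defining full response. Beta-arrestin recruitment detected by chemiluminescent reagent, read after 1 h at ambient temperature.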
Menin MLL FP FL: qHTS Assay for Inhibitors Targeting the Menin-MLL Interaction in MLL Related Leukemias: Competition With Fluorescein Labeled MLL-derived Peptide; Fluorescence polarization, fluorescein-MLL peptide displacement from menin; FP activity change, % at 61.4 µM; 290,000 tested, under 10 active; AID 1766, 2009; inconclusive = falling polarisation curve, or a change in total fluorescence; inactive = total fluorescence flat and polarisation flat or rising; no compound was filed as active; the % refers to the polarisation; negative = inhibition;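 also: % of control where 0% means no effect; inhibitors lower the polarisation; unlabelled MLL peptide was the positive control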
gsp antagonist: qHTS for Antagonists of gsp, the Etiologic Mutation Responsible for Fibrous Dysplasia/McCune-Albright Syndrome: qHTS; Potency, µM (titrated, usually from 76.9 µM), for inactives: at the highest dose activity change, negative = inhibition, most hits filed as inhibitors; actives 0.4% (n = 340,000); gsp-mutant cells, cAMP HTRF, 30 min; control for the full effect not named in the record; active = falling curve of any shape with a large fitted effect; inconclusive = falling curve, mostly with a smaller effect; inactive = flat or rising curve; cell line not stated here;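 also: intracellular cAMP measured with PDE inhibitor Ro 20-1724 present during compound exposure; potency is read from the fitted curve at half-maximal effect; % is scaled to controls: 0 for no effect and ±100 for the full control effect; nearly all actives have a fitted effect of over 65% in size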
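HTRF cAMP read-out (cAMP-d2 plus anti-cAMP antibody-K in lysis buffer, 30 min RT). Before lysis, cells are exposed to compounds with […] for 30 min at 37C in DPBS containing Ca/Mg, BSA and Tween 20.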
Sfp PPTase inh: qHTS Assay for Inhibitors of Bacillus subtilis Sfp phosphopantetheinyl transferase (PPTase). 4'-phosphopantetheinyl transferase ffp (Bacillus subtilis), Q9F4F7. Biochemical Sfp PPTase activity, qHTS. Potency, µM, without a hit: max response, negative = inhibition, hits mostly inhibitors. actives 3.5% (n = 310,000); active = well fitted inhibition curve with a large enough effect; inconclusive = small, poorly fitted or top-dose-only effect, or another doubt; inactive = no such curve, though single readings can be large or run the other way;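 also: the enzyme is Sfp with the accession as filed and its product quenches rhodamine fluorescence; potency is read from the fitted curve at half-maximal effect; 0% = enzyme reaction without inhibitor and -100% = no enzyme wells; top concentration of the series not given in the record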
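With Hepes-Na pH 7.6 buffer containing 10 mM MgCl2, Sfp (15 nM) modified BHQ-2-YbbR (12.5 uM) using rhodamine-CoA (5 uM). Two reads 30 minutes apart at 525/598 nm yielded each well's rate.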
The depositor's hits bear a star; ? = inconclusive; · = not tested or not shown; & = joins results of further samples; [ ] = remark or other dose. Compounds were not picked by outcome; any-hit rate near 5.1%.

Values run as follows: PINK1 expr mod, gsp agonist, ClpP mod, D2 agonist, Menin MLL FP FL, gsp antagonist, Sfp PPTase inh
[1] O=C(Nc1ccc2c(c1)OCO2)C1CCCN1C(=O)Nc1ccccc1 (stereo unspecified)
 : 2.6%, -1%[15.4 µM], 0.5%, -2.8, 1.2, 10%, 4%
[2] CCCn1c(C)cc(=O)c2cc(NC(=O)c3ccccn3)ccc21
 : 6.4%, -69%[inhibitor], -0.6%, -2.2, 1.8, -22%, 14%
[3] Nc1ccc2c(c1)nnn2-c1ccccc1
 : -0.7%, 8%[15.4 µM], ·, 5.5, 1.7, 1%, -5%
[4] COc1cc(OC)cc(-c2oc(=O)c3cc(OC)c(OC)cc3c2C#CCCCO)c1
 : -0.7%, ·, 4.4%, -6.1, ·, 9%, ·
[5] Cc1ccn2c(NC3CCCCC3)c(C)nc2c1
 : 24%[38.3 µM], ?, -8.1%, 0.9, -0.9, -15%, ?
[6] CCN(CC)c1nc(C#N)cc(-c2ccc(OC)cc2)n1
 : 3.9%, -48%[inhibitor], 35µM*, -1.9, -3.1, 17%, -13%
[7] COc1cc(/C=N/Nc2nc3ccccc3[nH]c2=O)ccc1O
 : 0.4%, -3%[15.4 µM], ·, -2.3, 0.2, 14%, 0%
[8] CCn1c(=O)c(C(=O)NNS(=O)(=O)c2ccc(Cl)cc2)c(O)c2ccccc21
 : 15%, -25%, 1.3%, -2.9, 2.5, -15%, 21%
[9] Cc1ccc(S(=O)(=O)N2CC3(O)CN(C(=O)OC(C)C)N(C(=O)OC(C)C)CC3(OC(=O)NCC3CCCCC3)C2)cc1 (stereo unspecified)
 : 3.5%, -9%, 3.6%, -2.7, ·, ·, ·
[10] CCN1C(=O)CC(C(=O)NC)SC1=Nc1cc(Cl)c(O)c(Cl)c1 (stereo unspecified)
 : 1.5%, -4%, -0.3%, -4.5, 1.5, -14%, 0%

Some of these compounds in order of SMILES length, ascending.
Values run as follows: PINK1 expr mod, gsp agonist, ClpP mod, D2 agonist, Menin MLL FP FL, gsp antagonist, Sfp PPTase inh
[5] Cc1ccn2c(NC3CCCCC3)c(C)nc2c1
 : 24%[38.3 µM], ?, -8.1%, 0.9, -0.9, -15%, ?
[6] CCN(CC)c1nc(C#N)cc(-c2ccc(OC)cc2)n1
 : 3.9%, -48%[inhibitor], 35µM*, -1.9, -3.1, 17%, -13%
[4] COc1cc(OC)cc(-c2oc(=O)c3cc(OC)c(OC)cc3c2C#CCCCO)c1
 : -0.7%, ·, 4.4%, -6.1, ·, 9%, ·

Next entries:
Values run as follows: PINK1 expr mod, gsp agonist, ClpP mod, D2 agonist, Menin MLL FP FL, gsp antagonist, Sfp PPTase inh
[11] CCOc1ccccc1NS(=O)(=O)N(C)C
 : 5.8%[38.3 µM], 2%, -0.4%, 0.2, 2.3, 2%, 8%
[12] Nc1ccc2nc(Cc3ccccc3)[nH]c2c1
 : -0.1%, ?, ·, 1.8, 8.6, -11%, ?
[13] NC(=O)COC(=O)c1oc2ccccc2c1CSc1ccc(Cl)cc1
 : 2.5%, -11%, -0.5%, 5.1, 1.1, -5%, -15%
[14] CCCNC(=O)c1cc(C2CCCCN2C(=O)OC)on1 (stereo unspecified)
 : 0.1%, ·, 0.5%, -5.6, ·, ·, ·
[15] O=C(Nc1ccccc1OC(F)F)C1CCCN1C(=O)c1cccs1 (stereo unspecified)
 : -0.3%, 3%, 0.3%, -0.2, 5.3, 4%, 11%
[16] O=C(CNC(=O)c1ccccc1)OC(C(=O)Nc1cc(C(F)(F)F)ccc1Cl)c1ccccc1 (stereo unspecified)
 : -0.5%&3.6%&-0.2%, ?, 0.8%&-0.5%&-1.7%, 0.6, 3.4, -4%, 9%
[17] CCCOc1ccc(N2C(=O)C3ON(c4ccccc4)C(CCC)C3C2=O)cc1 (stereo unspecified)
 : -0.8%, 5%, -2.3%, -0.3, -1.2, -12%, 5%
[18] N#Cc1ccccc1NC(=O)COc1ccccc1C(=O)Nc1ccccc1
 : -0.3%&-1.1%, -5%, -7.2%&-1.2%, 2.4, ·, -26%, ·
[19] O=C(CCC(NC(=O)OCc1ccccc1)C(=O)OCc1ccccc1)NCC(=O)OCc1ccccc1 (stereo unspecified)
 : 14%, 0%[15.4 µM], -0.1%, 2.2, 6.8, 10%, 20%
[20] CCOC(=O)C1CCCN(S(=O)(=O)c2ccc3c(c2)C(C)(C)C(=O)N3C)C1 (stereo unspecified)
 : 0.1%, -52%[inhibitor], 0.2%, -4.1, 0.0, 3%, 17%

As a working copy, 12 of the compounds above.
Values run as follows: PINK1 expr mod, gsp agonist, ClpP mod, D2 agonist, Menin MLL FP FL, gsp antagonist, Sfp PPTase inh
[9] Cc1ccc(S(=O)(=O)N2CC3(O)CN(C(=O)OC(C)C)N(C(=O)OC(C)C)CC3(OC(=O)NCC3CCCCC3)C2)cc1 (stereo unspecified)
 : 3.5%, -9%, 3.6%, -2.7, ·, ·, ·
[10] CCN1C(=O)CC(C(=O)NC)SC1=Nc1cc(Cl)c(O)c(Cl)c1 (stereo unspecified)
 : 1.5%, -4%, -0.3%, -4.5, 1.5, -14%, 0%
[11] CCOc1ccccc1NS(=O)(=O)N(C)C
 : 5.8%[38.3 µM], 2%, -0.4%, 0.2, 2.3, 2%, 8%
[12] Nc1ccc2nc(Cc3ccccc3)[nH]c2c1
 : -0.1%, ?, ·, 1.8, 8.6, -11%, ?
[13] NC(=O)COC(=O)c1oc2ccccc2c1CSc1ccc(Cl)cc1
 : 2.5%, -11%, -0.5%, 5.1, 1.1, -5%, -15%
[14] CCCNC(=O)c1cc(C2CCCCN2C(=O)OC)on1 (stereo unspecified)
 : 0.1%, ·, 0.5%, -5.6, ·, ·, ·
[15] O=C(Nc1ccccc1OC(F)F)C1CCCN1C(=O)c1cccs1 (stereo unspecified)
 : -0.3%, 3%, 0.3%, -0.2, 5.3, 4%, 11%
[16] O=C(CNC(=O)c1ccccc1)OC(C(=O)Nc1cc(C(F)(F)F)ccc1Cl)c1ccccc1 (stereo unspecified)
 : -0.5%&3.6%&-0.2%, ?, 0.8%&-0.5%&-1.7%, 0.6, 3.4, -4%, 9%
[17] CCCOc1ccc(N2C(=O)C3ON(c4ccccc4)C(CCC)C3C2=O)cc1 (stereo unspecified)
 : -0.8%, 5%, -2.3%, -0.3, -1.2, -12%, 5%
[18] N#Cc1ccccc1NC(=O)COc1ccccc1C(=O)Nc1ccccc1
 : -0.3%&-1.1%, -5%, -7.2%&-1.2%, 2.4, ·, -26%, ·
[19] O=C(CCC(NC(=O)OCc1ccccc1)C(=O)OCc1ccccc1)NCC(=O)OCc1ccccc1 (stereo unspecified)
 : 14%, 0%[15.4 µM], -0.1%, 2.2, 6.8, 10%, 20%
[20] CCOC(=O)C1CCCN(S(=O)(=O)c2ccc3c(c2)C(C)(C)C(=O)N3C)C1 (stereo unspecified)
 : 0.1%, -52%[inhibitor], 0.2%, -4.1, 0.0, 3%, 17%

(list continues)
Values run as follows: PINK1 expr mod, gsp agonist, ClpP mod, D2 agonist, Menin MLL FP FL, gsp antagonist, Sfp PPTase inh
[21] O=C(NC1CCCCC1)c1cc(-c2ccc(F)cc2)on1
 : -0.5%, 5%[15.4 µM], ·, -2.6, -19, 5%, 9%
[22] Cc1ccc(Cn2c(-n3nc(C)cc3C)nc3c2c(=O)[nH]c(=O)n3C)cc1
 : ?, -34%[inhibitor], -1.2%, -2.5, 0.6, 10%, 11%
[23] CSCC[C@H](NC(=O)OC(C)(C)C)C(=O)N1CCC(C(=O)N[C@@H](C)C(=O)NCc2ccc(F)cc2)CC1
 : 0.2%, ·, 1.2%, -3.9, 3.8, 11%, 20%
[24] CCc1ccc(NC(=O)/C(C#N)=C/c2cc3ccc(C)cc3nc2N2CCOCC2)cc1
 : ?, ?, ?, 2.2, ?, -12%, -2%
[25] COC(=O)c1ccc(C(=O)NCCCCO)cc1
 : -0.9%, -2%[15.4 µM], ·, -1.3, -3.7, 7%, 21%
[26] Cc1ccc(/C=C2\SC(=S)N(CCCC(=O)Nc3ccccc3C(=O)O)C2=O)cc1
 : 0.6%, 3%, -0.7%, -1.5, ·, ?, 5%
[27] Cc1ccc(NC(=O)COC(=O)C2CCC2)cc1S(=O)(=O)N1CCOCC1
 : 0.8%, -45%[inhibitor], 1.0%, -4.4, ·, -3%, ·
[28] CCN1CCN(S(=O)(=O)c2ccc(Cl)c(C(=O)N(C)C(c3ccccc3)c3ccccc3)c2)CC1
 : 2.3%, -21%[15.4 µM], ·, -2.5, ·, 7%, ·
